Screens as filed in PubChem.
TRPML1 blocker – qHTS for Inhibitors of the Human Mucolipin Transient Receptor Potential 1 (TRPML1) | Mucolipin-1 (Homo sapiens), Q9GZU1 | TRPML1-inducible cells, Ca2+ dye fluorescence, FDSS; hits give low values; inhibition of EC80 agonist-evoked calcium signal | activity change, negative = inhibition, % (test concentration not listed) | 0.02% of 390,000 active | AID 624415, 2012; in the data active means activity change below about -50%; inconclusive means about -30% to -50%; inactive means above about -30%;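 also: stimulus is agonist 54-4 at its EC80 concentration; % is scaled to controls: 0 for no effect and ±100 for the full control effect; compound concentration not given in the record; the text of the record puts the active cut at -80%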
Target sequence (Q9GZU1 whole entry, looked up): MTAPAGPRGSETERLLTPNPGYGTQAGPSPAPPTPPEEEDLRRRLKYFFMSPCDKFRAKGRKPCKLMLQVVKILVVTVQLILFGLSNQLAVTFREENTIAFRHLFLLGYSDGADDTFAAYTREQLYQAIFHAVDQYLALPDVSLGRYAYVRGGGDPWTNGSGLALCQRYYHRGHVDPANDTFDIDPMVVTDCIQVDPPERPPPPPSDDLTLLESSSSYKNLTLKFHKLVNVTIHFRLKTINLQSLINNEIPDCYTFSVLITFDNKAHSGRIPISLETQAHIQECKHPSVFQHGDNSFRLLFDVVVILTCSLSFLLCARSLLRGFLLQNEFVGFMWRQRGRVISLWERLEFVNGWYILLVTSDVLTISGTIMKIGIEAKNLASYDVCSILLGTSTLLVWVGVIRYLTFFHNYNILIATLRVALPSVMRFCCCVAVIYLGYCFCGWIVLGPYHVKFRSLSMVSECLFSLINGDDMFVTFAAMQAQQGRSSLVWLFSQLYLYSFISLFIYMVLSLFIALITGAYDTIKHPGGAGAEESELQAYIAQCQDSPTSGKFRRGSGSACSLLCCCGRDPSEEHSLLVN
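TRPML1-DL cells, Tet-induced overnight (~16 h, 37 °C) at 1,500 cells/well, were loaded with Ca8 no-wash dye plus quencher for 45-90 min at room temperature. Compounds were pinned during FDSS kinetic reading; agonist 54-4 at EC80 (4 uM final) then added.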
gsp ag – qHTS for Agonist of gsp, the Etiologic Mutation Responsible for Fibrous Dysplasia/McCune-Albright Syndrome: qHTS; AID 624287, 2012; gsp mutant cells, cAMP HTRF, 30 min; control for the full effect not named in the record; 0.13% of 340,000 active; Potency, µM (series often up to 76.9 µM), for the others: at the top dose activation (cAMP increase), hits mostly activators; active = well fitted activation curve with a large enough effect; inconclusive = small, poorly fitted or top-dose-only effect, or another doubt; inactive = no such curve, though single readings can be large or run the other way; cell line not stated here;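 also: phosphodiesterase inhibitor Ro 20-1724 added with compounds to block cAMP breakdown; potency is read from the fitted curve at half-maximal effect; nearly all actives have a fitted effect of over 60% in size; about a fifth of the inactives were tested at one dose only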
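Cells in DMEM/10% FBS with G418 were pretreated with compounds in DMSO plus […] (300 uM stock) for 30 min at 37C. cAMP was measured by HTRF (cAMP-d2 plus anti-cAMP antibody-K) after 30 min at room temperature.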
ClpP mod – qHTS Assay for Activators of ClpP; 1.9% of 340,000 active; ATP-dependent Clp protease proteolytic subunit (Bacillus subtilis (strain 168)), P80244; AID 651965, 2013; purified B. subtilis ClpP, FRET peptide cleavage, 20 min; Potency, µM (doses to about 57.5 µM), without a hit: at the top dose activity change, negative = active; active = well fitted falling curve with a large enough effect; inconclusive = small, poorly fitted or top-dose-only effect; inactive = no such curve, though single readings can be large or run the other way; also: potency is read from the fitted curve at half-maximal effect; the source files actives as falling curves though it sought activators and does not explain the sign; nearly all actives have a fitted effect of over 65% in size; many hits overshoot -100%
Target sequence (P80244 whole entry, looked up): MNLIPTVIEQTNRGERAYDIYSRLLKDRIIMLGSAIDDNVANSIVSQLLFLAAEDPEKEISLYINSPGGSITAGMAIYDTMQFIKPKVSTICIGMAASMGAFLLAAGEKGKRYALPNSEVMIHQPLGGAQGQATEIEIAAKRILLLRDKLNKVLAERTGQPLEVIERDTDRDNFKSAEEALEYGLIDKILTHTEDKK
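Buffer: 100 mM Tris/HCl pH8, 100 mM KCl, 0.05% low protease BSA, 2.5% glycerol, 0.01% Tween-20. ClpP 10 microg/mL final; 20 min RT; delta FRET normalized to ADEP and DMSO controls.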
Menin MLL FP FL – qHTS Assay for Inhibitors Targeting the Menin-MLL Interaction in MLL Related Leukemias: Competition With Fluorescein Labeled MLL-derived Peptide. FP activity change, % at 61.4 µM. AID 1766, 2009. 290,000 tested, under 10 active. Fluorescence polarization, fluorescein-MLL peptide displacement from menin; inconclusive = falling polarisation curve, or a change in total fluorescence; inactive = total fluorescence flat and polarisation flat or rising; no compound was filed as active; the % refers to the polarisation; negative = inhibition;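 also: % of control where 0% means no effect; inhibitors lower the polarisation; unlabelled MLL peptide was the positive control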
gsp antagonist – qHTS for Antagonists of gsp, the Etiologic Mutation Responsible for Fibrous Dysplasia/McCune-Albright Syndrome: qHTS | gsp-mutant cells, cAMP HTRF, 30 min; control for the full effect not named in the record | Potency, µM (doses to about 76.9 µM), for inactives: at the highest dose activity change, negative = inhibition, hits mostly inhibitors | 0.4% of 340,000 active; active = falling curve of any shape with a large fitted effect; inconclusive = falling curve, mostly with a smaller effect; inactive = flat or rising curve; cell line not stated here;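 also: intracellular cAMP measured with PDE inhibitor Ro 20-1724 present during compound exposure; potency is read from the fitted curve at half-maximal effect; % is scaled to controls: 0 for no effect and ±100 for the full control effect; nearly all actives have a fitted effect of over 65% in size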
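Cells in G418 medium, seeded 16-24 h, 37C; buffer exchange to DPBS + 1 mM CaCl2, 0.5 mM MgCl2, 0.05% BSA; cpds in DMSO + […] (300 uM stock), 30 min 37C; HTRF cAMP detection.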
TRPML1 ag – qHTS for Agonists of the Human Mucolipin Transient Receptor Potential 1 (TRPML1); Mucolipin-1 (Homo sapiens), Q9GZU1; TRPML1-expressing cells, Ca2+ dye fluorescence, FDSS; host cell line not named in the record; reference of the full effect not given here; activation, % (test concentration not listed); 0.12% of 410,000 active; AID 624414, 2012; in the data active = activation above about 50%; inconclusive = about 30% to 50%; inactive = below about 30%; also: 0% is about no effect; the text of the record puts the active cut at 80%
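Cells: TRPML1-DL, 1X Tet inducer, ~16 h at 37 degrees C/5% CO2. Dye: ABD Ca8 no-wash + quencher, 45-90 min RT. Read: 10 s baseline, compound add, 110 s agonist phase; 54-4 EC80 (4uM final), 110 s antagonist phase.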
* hit, by the source's call; ? = inconclusive; nt = not tested or not shown; & = joins results of further samples; [ ] = another dose, or the depositor's remark.

The line under a structure holds: TRPML1 blocker	gsp ag	ClpP mod	Menin MLL FP FL	gsp antagonist	TRPML1 ag
1	CCCCOc1ccc(/C=N/NC(=O)c2csc(C)c2C)cc1
  -4	-3%	-7.1%	-0.4	?	-0.6
2	CCOC(=O)CSc1nc(C)c(C(C)=O)cc1C(N)=O
  -1	-4%[15.4 µM]	nt	-1.5	-15%	0.2
3	CC1Cc2ccccc2N1C(=O)CN1CCc2ccccc2C1 (configuration not stated)
  -23	-46%	0.9%	-1.2	-8%	0.2
4	Cc1cc(-c2ccccc2)n[nH]1
  -8	-3%	1.7%	4.0	1%	0.0
5	CCOC(=O)C1=C(C)N(C)C(=S)N(C)C1c1ccc(OC)cc1 (configuration not stated)
  5	-8%[15.4 µM]	nt	1.3	13%	-0.7
6	CCc1nnc(NC(=O)c2ccc(COc3ccc(C)cc3)o2)s1
  6	0%	0.5%	3.3	2%	0.9
7	CC12CCC(C(=O)Nc3ncc([N+](=O)[O-])s3)(OC1=O)C2(C)C (configuration not stated)
  -4	-10%	-0.7%	0.7	?	0.5
8	CC1CCN(S(=O)(=O)c2ccc(C(=O)Nc3ncccc3O)cc2)CC1
  -14	10%[15.4 µM]	-0.5%	nt	-1%	-0.2
9	Cc1oc(-c2cccc(Cl)c2)nc1CS(=O)(=O)CC(=O)NC1CCCC1
  -5	?	-8.6%	1.3	5%	-1.2
10	Clc1ncnc2[nH]ccc12
  -5	2%	nt	nt	3%	-0.5
11	CN(c1ccccc1)c1ccc(/C=C/[N+](=O)[O-])cc1
  -15	0%[15.4 µM]	nt	?	13%	?
12	Cc1csc(NC(=O)CSc2nsc(SCC(=O)Nc3nc(C)cs3)c2C#N)n1
  5	1%	-0.5%	3.7	-22%	0.4
13	CCOc1ccc(-c2cc(C(=O)OC)[nH]n2)cc1
  2	1%[15.4 µM]	nt	-0.3	-19%	0.1
14	O=C(NCCCOc1cccc(CN2CCCCC2)c1)c1ccc(Cl)c(Cl)c1
  3	5%[15.4 µM]	16µM*	1.9	12%	-1.7
15	CCNc1ccc(S(=O)(=O)N2CCCCC2)cn1
  12	-6%	4.1%	nt	?	-0.4
16	OCC1(CCOc2ccccc2)CCN(Cc2cn[nH]c2-c2ccccc2)CC1
  -10	0%	1.5%	-0.4	16%	0.8
17	N#Cc1ccccc1Cn1nnc2c(=O)[nH]c(C3CCCN(S(=O)(=O)c4ccc(F)cc4)C3)nc21 (configuration not stated)
  -3	nt	-7.3%	nt	nt	-0.1
18	COC(=O)c1c(-c2ccccc2)csc1NC(=O)C1CC=CCC1C(=O)O (configuration not stated)
  16	4%[15.4 µM]	nt	-3.0	-8%	0.5
19	Cc1ccc(NC(=O)CSc2nnc(-c3ccccn3)n2C)cc1
  7	2%	-0.1%	3.2	11%	-1.0
20	CCOCCCNC(=O)c1ccc(CS(=O)(=O)Cc2cccc(C)c2)o1
  -16	17%	-0.9%	3.4	-2%	0.1
21	CCOC(=O)c1cc2c(C)n(-c3ccc(N(C)C)cc3)c(C)c2cc(C(=O)OCC)c1=O
  -4	-3%	0.1%	5.5	-15%	-0.5
22	CCC(C)NC(=O)c1cn(CC)c2ccc(S(=O)(=O)N3CCc4ccccc4C3)cc2c1=O (configuration not stated)
  -4	nt	-0.9%	nt	nt	-1.2
23	COc1cc(CNC(C)c2ccccc2)cc(Cl)c1OCC(=O)Nc1ccccc1 (configuration not stated)
  -14	-4%	-1.4%	22	-14%	3.8
24	COCCCNC(=O)c1ccc(C2SCC(=O)N2Cc2ccco2)cc1 (configuration not stated)
  16	-2%[15.4 µM]	nt	-0.9	1%	-0.2
25	O=C(Cc1ccc(Cl)cc1)Nc1ccc2oc(-c3ccccc3)nc2c1
  10	nt	-5.5%	nt	nt	-0.4
26	COc1ccc(NS(=O)(=O)c2ccc3c(c2)NC(=O)CCS3)c(OC)c1
  1	nt	0.3%	nt	nt	1.6
27	O=C1CNC(=O)/C1=C/c1ccccc1
  9	-18%	nt	6.3	4%	0.1
28	O=S(=O)(Nc1cccc(CO)c1)c1cccs1
  -16	2%[15.4 µM]	nt	0.7	1%	1.3
29	COc1ccc(S(=O)(=O)N2CCCOC2CNC(=O)C(=O)NCCc2ccco2)cc1OC (configuration not stated)
  4	-48%[inhibitor]	0.6%	nt	16%	-0.6
30	CN1/C(=C\C(=O)COC(=O)CN2C(=O)C3CC=CCC3C2=O)C(C)(C)c2ccccc21 (configuration not stated)
  15	9%	-1.7%	3.8	?	2.3

31) Cc1ccc(N(CC(=O)NC(C)C)C(=O)CCC(=O)Nc2ccccn2)c(C)c1
32) O=C(Cc1cccc(C(F)(F)F)c1)NCc1cccnc1
33) CC(C(=O)OCC(=O)NC1CCCCC1)N1C(=O)c2ccccc2C1=O (configuration not stated)
34) COc1ccc(C(=O)NCc2ccccn2)cc1[N+](=O)[O-]
35) CCOC(=O)N1C(=O)C2(CCCCC2)N(c2ccccc2Cl)C1=S
36) COc1ccc(CCNC(=O)CN2c3cccc4cccc(c34)S2(=O)=O)cc1
37) Oc1ccccc1-c1nc(NCC2CCCO2)c2ccccc2n1 (configuration not stated)
38) C=CCn1cc(C(=O)NCCCOCC)c(=O)c2cc(S(=O)(=O)N(CC)CC)ccc21
assay / compound,31,32,33,34,35,36,37,38
TRPML1 blocker,28,-20,-9,-28,14,2,3,-17
gsp ag,?,-15%,2%,-10%[15.4 µM],-37%[inhibitor],?,-15%,8%
ClpP mod,2.0%,-0.4%,1.4%,nt,-3.0%,-12%,-1.8%,-23%
Menin MLL FP FL,nt,nt,nt,0.6,6.0,nt,0.6,-0.3
gsp antagonist,nt,6%,0%,-12%,19%,-7%,?,-17%
TRPML1 ag,0.4,0.0,-0.6,1.0,13,2.2,0.5,-1.2

39) C[C@@]12C(=O)Nc3cc(F)ccc3C(=O)N1[C@H]1c3cc(Br)ccc3OC[C@@H]1[C@@H]2c1ccccc1
40) Cn1c(SCc2nnc3n2CCCCC3)nc2ccccc21
41) O=C(CSc1nncs1)Nc1ccc2[nH]c(=O)[nH]c2c1
42) Nc1n[nH]c(CCCO)n1
43) Cc1cc2[nH]c(=O)c(=O)[nH]c2cc1S(=O)(=O)NCc1ccccc1
44) COc1ccccc1-c1noc(-c2ccc(N3CCOCC3)c([N+](=O)[O-])c2)n1
45) CCOC(=O)C1(O)CC(C)=NN1C(=O)c1cccc(Cl)c1 (configuration not stated)
46) CCN(Cc1ccc2c(c1)OCCO2)C(=O)CN1C(=O)NC2(CCCCC2)C1=O
assay / compound,39,40,41,42,43,44,45,46
TRPML1 blocker,8,0,9,13,22,1,-12,-2
gsp ag,nt,-45%[inhibitor],-5%[15.4 µM],1%,24%,nt,17%,-5%
ClpP mod,-4.7%,1.3%,nt,-0.9%,4.4%,0.1%,0.7%,-2.6%
Menin MLL FP FL,nt,0.6,nt,0.1,nt,nt,-3.4,nt
gsp antagonist,6%,1%,-1%,5%,9%,nt,14%,3%
TRPML1 ag,0.6,-0.4,0.3,0.7,0.5,-0.9,-0.5,0.3

47) CCCN(CCC)C(=O)C1CC(=O)OC12CCOC(C)(C)C2 (configuration not stated)
48) COc1ccc(C(C)=NNS(=O)(=O)c2ccc(C)cc2)cc1OC
49) COc1ccc(C2/C=C\CN(S(=O)(=O)c3cccc4cccnc34)CC(=O)N2Cc2ccc(F)cc2)cc1 (configuration not stated)
50) CCn1c(SCC(=O)Nc2ccc3c(c2)OCO3)nc2c(c1=O)SC(C)C2 (configuration not stated)
51) CCn1c(SCc2ccccc2)nc2c(c1=O)SCC2
52) O=C(Cc1nc(-c2cnccn2)no1)NNC(=O)Nc1ccccc1
53) CN1CCC[C@H]1CCNC(=O)c1c(-c2ccsc2)sc2ccccc12
54) Cc1ccc(C)c(S(=O)(=O)c2cn(C)c3cc(N4CCCCC4C)c(F)cc3c2=O)c1 (configuration not stated)
assay / compound,47,48,49,50,51,52,53,54
TRPML1 blocker,2,-3,46&61,12,40,6,13,9
gsp ag,?,14%,nt,-2%,9%[15.4 µM],11%[15.4 µM],?,nt
ClpP mod,-0.4%,-2.4%,0.0%,-0.4%,?,-1.7%,-0.9%,?
Menin MLL FP FL,2.6,nt,-0.6&1.6,6.1,-0.5,-1.3,nt,nt
gsp antagonist,5%,nt,-19%,-10%,-2%,-1%,-3%,nt
TRPML1 ag,-1.3,0.2,0.7&1.7,-0.2,3.3,-0.5,0.0,0.7

In a second layout: results already given
54) Cc1ccc(C)c(S(=O)(=O)c2cn(C)c3cc(N4CCCCC4C)c(F)cc3c2=O)c1 (configuration not stated)
  TRPML1 blocker: 9	gsp ag: nt	ClpP mod: ?	Menin MLL FP FL: nt	gsp antagonist: nt	TRPML1 ag: 0.7
49) COc1ccc(C2/C=C\CN(S(=O)(=O)c3cccc4cccnc34)CC(=O)N2Cc2ccc(F)cc2)cc1 (configuration not stated)
  TRPML1 blocker: 46&61	gsp ag: nt	ClpP mod: 0.0%	Menin MLL FP FL: -0.6&1.6	gsp antagonist: -19%	TRPML1 ag: 0.7&1.7
48) COc1ccc(C(C)=NNS(=O)(=O)c2ccc(C)cc2)cc1OC
  TRPML1 blocker: -3	gsp ag: 14%	ClpP mod: -2.4%	Menin MLL FP FL: nt	gsp antagonist: nt	TRPML1 ag: 0.2
53) CN1CCC[C@H]1CCNC(=O)c1c(-c2ccsc2)sc2ccccc12
  TRPML1 blocker: 13	gsp ag: ?	ClpP mod: -0.9%	Menin MLL FP FL: nt	gsp antagonist: -3%	TRPML1 ag: 0.0

Other structures.
55) COc1ccccc1C(=O)NC1CC(C)(C)NC(C)(C)C1
56) CCOc1ccc(CCNC(=O)C2CCC(CNS(=O)(=O)c3ccc(Cl)cc3)CC2)cc1OCC (configuration not stated)
57) CS(=O)(=O)c1ccc(NCCc2ccc(S(N)(=O)=O)cc2)c([N+](=O)[O-])c1
58) CCOC(=O)c1ccc(N2C(=O)[C@@H](c3ccccc3)[C@H]2c2ccccc2)cc1
59) COc1cccc(/C=N/n2c(N)nc3ccccc32)c1OC
assay / compound,55,56,57,58,59
TRPML1 blocker,3,-4,6,26,10
gsp ag,-30%,nt,-18%[15.4 µM],1%,-3%
ClpP mod,nt,-3.3%,nt,0.4%,?
Menin MLL FP FL,-3.0,nt,-3.9,nt,-1.2
gsp antagonist,9%,nt,-3%,-17%,-4%
TRPML1 ag,-0.3,3.5,-1.0,-0.2,0.7
